# Screens: PubChem BioAssay, National Center for Advancing Translational Sciences (NCATS)
# A488 autofl: compound autofluorescence in A488 spectral region. compound autofluorescence, A488 spectral region, dye equivalency; hits give high values. AID 591. 59,000 tested, 0.1% active. max dye equivalency, M; active = above 10 nM dye equivalent; inconclusive = 1 to 10 nM; inactive = 1 nM or less; about half of its hits are not listed in these tables;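 further: highest value over a series up to 38 µM; compound alone in buffer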
#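 Compound autofluorescence was read in 100 mM Tris pH 8.0 after 15 min at room temperature, ex 480 nm/em 540 nm. Intensities were converted to A488 dye-equivalent concentration using an on-plate six-point A488 standard curve.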
# A647 autofl: A647 region autofluorescence. Compound fluorescence, A647 channel (570/671 nm), Tris buffer. max dye-equivalent concentration, M. 59,000 tested, under 10 active. AID 592; active means above 1 µM dye equivalent; inconclusive means 0.1 to 1 µM; inactive means 0.1 µM or less;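 further: values scaled relative to a standard on each plate; highest value over a series up to 38 µM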
#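 Buffer was dispensed, compounds and Alexa 647 standards were pin-transferred, and plates sat 15 min at room temperature. Intensity at 570/671 nm was then converted to dye-equivalent concentration using the plate's A647 standard curve.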
# TSHR agonist: activates the human thyroid stimulating hormone receptor; P16473; HEK293-CNG-TSHR cells (CNG channel as cAMP sensor), membrane potential dye, cAMP; Potency, µM (titrated, usually from 57.1 µM), without a hit: top-dose activation, actives largely listed as activators; 73,000 tested, 0.48% active; AID 926; active = well fitted activation curve of enough size with the parental cells flat; inconclusive = any curve in the parental cells; inactive = parental cells flat and receptor cells flat or falling; further: potency means the concentration at half of the fitted maximal effect; % of control where 0% means no effect; weak receptor curves with flat parental cells got no call and are not listed
# Target sequence (P16473 whole entry, looked up): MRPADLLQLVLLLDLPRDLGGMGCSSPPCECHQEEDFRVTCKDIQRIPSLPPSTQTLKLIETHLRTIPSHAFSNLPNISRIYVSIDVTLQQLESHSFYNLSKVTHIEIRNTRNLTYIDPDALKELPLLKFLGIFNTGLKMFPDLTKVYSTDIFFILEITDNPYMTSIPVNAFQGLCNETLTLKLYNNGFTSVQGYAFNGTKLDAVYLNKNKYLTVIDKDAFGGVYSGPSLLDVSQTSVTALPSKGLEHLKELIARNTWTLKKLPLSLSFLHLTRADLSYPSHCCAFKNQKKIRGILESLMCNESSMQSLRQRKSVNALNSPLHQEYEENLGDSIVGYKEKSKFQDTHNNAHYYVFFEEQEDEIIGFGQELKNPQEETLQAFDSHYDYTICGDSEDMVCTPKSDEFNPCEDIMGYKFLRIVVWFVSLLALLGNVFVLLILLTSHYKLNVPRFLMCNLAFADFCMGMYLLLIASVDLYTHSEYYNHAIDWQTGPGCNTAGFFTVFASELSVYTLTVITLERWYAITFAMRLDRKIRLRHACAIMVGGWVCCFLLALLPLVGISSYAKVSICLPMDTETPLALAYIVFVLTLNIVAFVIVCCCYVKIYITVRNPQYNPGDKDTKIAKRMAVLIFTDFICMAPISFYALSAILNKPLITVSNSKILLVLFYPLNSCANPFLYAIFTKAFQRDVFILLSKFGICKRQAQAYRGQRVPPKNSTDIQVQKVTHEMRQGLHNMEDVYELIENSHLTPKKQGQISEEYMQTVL
#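 HEK 293 cells stably expressing TSHR and a cAMP-gated CNG channel; parental CNG-only cells as counterscreen. Cells preloaded 60 min with membrane potential dye plus 100 uM RO 20-1724, then compound 30 min; fluorescence read at 590 nm.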
# Resorufin fluor: resorufin region autofluorescence. Compound fluorescence, resorufin region 547/598 nm, buffer; hits give high values. max dye-equivalent concentration, M. AID 588. 59,000 tested, 0.04% active; active = above 10 nM dye equivalent; inconclusive = 1 to 10 nM; inactive = 1 nM or less; a few of its hits are not listed in these tables; further: highest value over a series up to 38 µM
#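 Compounds in 100 mM Tris buffer, pH 8.0, incubated 15 min at room temperature, then read with 547 nm excitation and 598 nm emission filters. Fluorescence was converted to dye-equivalent concentration using an on-plate six-point resorufin standard curve.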
# AID923: qHTS Assay for Allosteric/Competitive Inhibitors of Caspase-1: Spectroscopic Profiling in AFC Spectral Region | Potency, µM (highest dose often 57.5 µM), for the others: top-dose fluorescence increase, usual class: activators | compound fluorescence, AFC spectral region (405/520 nm); almost no hit is shown here | 75,000 tested, 1.1% active; active means well fitted activation curve with a large enough effect; inconclusive means small, poorly fitted or top-dose-only effect;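 further: potency means the concentration at half of the fitted maximal effect; 0% is about no effect; scaled to a free AFC standard on each plate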
#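 Compound autofluorescence profiled at 405 nm ex/520 nm em during kinetic caspase 1 run (50 nM enzyme, 5 uM Ac-WEHD-AFC, HEPES pH 7.5, 10 mM DTT). Titration up to 57 uM; baseline from regression intercept, normalized to AFC standard curve.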
# Numbers without * were called inactive; i = inactive; ? = inconclusive; . = no result given; [ ] = dose if it differs, or a comment. An excerpt, so the mix of outcomes need not match the whole.
# Every second line gives: A488 autofl	A647 autofl	TSHR agonist	Resorufin fluor	AID923
- Cc1ccc(S(=O)(=O)N(C)CC(=O)Nc2nc3ccccc3s2)cc1
 : i	1e-09	5%	i	0.4%
- CCCn1c(-c2ccc(F)cc2)nc2c(NCCCCN3CCCC3)nc(C)nc21
 : .	.	?	.	-1.8%
- COc1ccc(-n2nnnc2SCC(=O)NCCc2ccc(OC)c(OC)c2)cc1
 : i	2.8e-09	7%	i	0.7%
- Cc1ccc(C(=O)C2CCN(CC(=O)Nc3ccc(N(C)C)cc3)CC2)cc1
 : i	2.4e-08	-13%	i	0.9%
- CC(C)=CCC/C(C)=C/CO/N=C1/C[C@@H](O)[C@@H](O)[C@@H]2[C@@H]3C(=O)N(C(C)(C)C)C(=O)[C@H]3CC[C@H]12
 : .	.	?	.	-0.4%[11.5 µM]
- Cc1ccccc1NC(=O)CSc1nc(N)c(C#N)c(-c2cccs2)c1C#N
 : i	3.2e-08	-3%	i	1.5%
- CC(C)OCCCn1c(=S)[nH]c2ncccc2c1=O
 : i	1e-09	0%	i	0.3%
- O=C(Cc1coc2ccc3ccccc3c12)N1CCCC1
 : i	1.6e-08	17%	i	-2.2%
- CCN(CC)Cc1cc(CC(C(N)=O)C(N)=O)ccc1OC
 : i	4.9e-08	-3%	i	-0.7%
- Cc1nc2ccccc2cc1C(=O)NCc1ccco1
 : i	4.3e-08	15%	i	1.7%
- CCCCCCCC1=Cc2ccccc2C(CC(C)=O)N1C(=O)OC (stereo not given)
 : .	.	?	.	0.8%[11.5 µM]
- Cc1cc(OCc2nn[nH]n2)c2c(C)c(Cc3ccccc3)c(=O)oc2c1
 : i	3.6e-08	-1%	i	-1.8%
- CCCn1c(SCC(=O)NC(=O)NCc2ccco2)n[nH]c1=O
 : i	7.5e-09	-2%[11.4 µM]	i	-1.5%
- CC(C)=C[C@H]1[C@@H](COC(=O)c2cc3c(cc2Cl)OCO3)C1(C)C
 : i	4.1e-09	5%[11.4 µM]	i	-1.9%[11.5 µM]
- CCCCOC(=O)Nc1ccc(N2CCCCC2)cc1
 : .	.	16%	.	2.2%
- COc1ccc(C(=S)N2CCN(C)CC2)cc1Br
 : .	.	3%	.	-3.5%
- CC1(C)Cc2nc(N)c(C(=O)NCCO)cc2CO1
 : i	5.3e-08	.	i	.
- Cn1c(N2CCCC2)nc2c1c(=O)n(Cc1ccc(F)cc1)c(=O)n2C
 : i	2.5e-09	-2%	i	0.9%
- COc1ccc(Cn2c(C)ccc2C)cc1
 : .	.	3%[11.4 µM]	.	-0.5%
- Cc1cc(C)n(-c2ccc(-n3ccnc3)nn2)n1
 : i	1.5e-08	12%	i	-1.9%

# Only A647 autofl and Resorufin fluor (3 entries from above):
Molecule | A647 autofl | Resorufin fluor
Cc1cc(OCc2nn[nH]n2)c2c(C)c(Cc3ccccc3)c(=O)oc2c1 | 3.6e-08 | i
CCCn1c(SCC(=O)NC(=O)NCc2ccco2)n[nH]c1=O | 7.5e-09 | i
CC(C)=C[C@H]1[C@@H](COC(=O)c2cc3c(cc2Cl)OCO3)C1(C)C | 4.1e-09 | i

# Further structures.
# Every second line gives: A488 autofl	A647 autofl	TSHR agonist	Resorufin fluor	AID923
- CCc1ccc(OCC(=O)OC2CCS(=O)(=O)C2)cc1 (stereo not given)
 : i	9.2e-09	9%	i	-1.1%
- FC(F)(F)COc1nc(N2CCCCC2)nc(N2CCNCC2)n1
 : .	.	-2%[11.4 µM]	.	-1.4%
- Cn1nnnc1SCC(=O)NCc1cccc(C(=O)O)c1
 : i	3.1e-08	1%	i	-0.4%
- c1ccc2c(c1)oc1c(NCc3ccc4c(c3)OCO4)ncnc12
 : i	2e-08	.	i	-0.7%
- COc1ccccc1NC(=O)C1CCCCC1
 : i	1e-09	1%	i	-0.7%
- CC(CCc1ccco1)NC(=O)CSc1cc(=O)n(C)c2ccccc12 (stereo not given)
 : i	1e-09	-1%	i	3.6%
- COc1ccc(NC(=O)Cn2nnc(-c3ccccc3NC(=O)C3CC3)n2)cc1
 : i	3.1e-08	9%	i	-0.2%
- CCc1nc2oc3ccccc3c(=O)c2c(=O)n1-c1ccccc1
 : i	1e-09	3%	i	-0.5%
- COc1ccc(N2C(=O)CC(c3ccc(OC(C)C)cc3)C2=O)cc1 (stereo not given)
 : .	.	6%	.	0.9%
- CCOC(=O)CSC1=C(C#N)C(c2ccccc2F)C(C(C)=O)=C(C)N1 (stereo not given)
 : i	6.3e-09	?	i	4.3%
- CN1CC[C@@]2(CCCN(C(=O)c3cccn3C)C2)C1
 : i	2.2e-08	1%	i	2.8%
- O=C(NC1CCCCC1)N1CCSC1=Nc1ccccc1
 : i	1e-09	.	i	.
- Cn1c2ccccc2c2c(C(=O)NCC3CCCO3)cn(C3CCCC3)c(=O)c21 (stereo not given)
 : i	4.6e-09	2%	i	-1.0%
- COc1ccccc1-c1cc(C(=O)Nc2ccccc2SC)no1
 : i	1e-09	-2%[11.4 µM]	i	-0.2%
- CC1CCCN(C(=O)C23CCC(C)(C(=O)C2)C3(C)C)C1 (stereo not given)
 : .	.	0%	.	0.3%
- Cc1ccc(CNS(=O)(=O)c2ccc(C(C)(C)C)cc2)n1C
 : i	1e-08	13%	i	3.8%
- C#CC(C)OC(=O)c1nnc2c3ccccc3n(COC)c2n1 (stereo not given)
 : .	.	-2%[11.4 µM]	.	1.0%[11.5 µM]
- Cn1c(=O)[nH]c(=O)c2c1nc(Br)n2Cc1ccccc1Cl
 : i	6e-09	3%	i	-0.2%
- C=CCN(C(=O)CCC(=O)O)C1CC(=O)N(c2ccc(OCCC)cc2)C1=O (stereo not given)
 : i	2.6e-08	.	i	.
- CCOc1ccc(C)cc1S(=O)(=O)n1ccnc1
 : i	9.5e-09	6%	i	-2.5%
- C=CCC1(O)C=CCC2C3C4C(OC(C)(C)C)C2C1C34 (stereo not given)
 : .	.	7%[11.4 µM]	.	0.5%[11.5 µM]
- O=C(NCCC1=CCCCC1)C1CCN(S(=O)(=O)N2CCOCC2)CC1
 : i	5.8e-09	6%	i	-2.1%
- Cc1cc(C(=O)NCc2ccco2)cs1
 : .	.	?	.	0.0%
- Cc1ccc2nc(SCC(=O)Nc3c(C)n(C)n(-c4ccccc4)c3=O)[nH]c2c1
 : i	3.4e-08	.	i	0.1%
- CCN(CC)CCSc1nc(O)c(-c2ccccc2)c(=O)[nH]1
 : i	1e-09	.	i	1.1%
- CN(C)Cc1ccc(O)c(CN(C)C)n1
 : i	2.7e-08	3%[11.4 µM]	i	0.1%[11.5 µM]
- COCCCn1cnc2c(c1=O)c1nc3ccccc3nc1n2-c1ccc(C)cc1
 : i	1.2e-08	10%	i	1.1%
- C=CCn1c(SC/C=C/c2ccccc2)nnc1-c1sc(N)nc1C
 : i	1e-09	?	i	2.9%
- CCN(CC)C(=O)c1sc2nc(-c3ccncc3)[nH]c(=O)c2c1C
 : i	6.4e-09	1%	i	1.2%
- CN(CCc1ccc(Cl)c(Cl)c1)C[C@@H](O)COc1ccc(NS(C)(=O)=O)cc1
 : .	.	12%	.	-0.8%
- c1coc(C2Nc3ccccc3-c3nc4ccccc4n32)c1 (stereo not given)
 : i	1e-09	?	i	10%
- CCOc1ccc(OCC)c(NC(=O)CC2Oc3ccc(C)cc3NC2=O)c1 (stereo not given)
 : .	.	5%	.	-1.7%
- CCC(C)OC(=O)C1=C(C)NC2=C(C(=O)C(C(=O)OC)C(C)C2)C1c1ccc(N(C)C)cc1 (stereo not given)
 : i	2.5e-08	4%[11.4 µM]	i	7.0%
- COc1cccc(-c2cc(C(=O)Nc3c(C)nn(Cc4ccccc4C)c3C)no2)c1
 : i	7.5e-09	-4%[11.4 µM]	i	-0.3%
- Cc1ccc(S(=O)(=O)N[C@H]2COC(=O)[C@@H](C)COC(=O)[C@H](C)NC(=O)C/C=C\[C@H]2C)cc1
 : .	.	8%[11.4 µM]	.	-0.8%[11.5 µM]
- CC(C)(C)c1ccc(C(O)CCCN2CCC(C(O)(c3ccccc3)c3ccccc3)CC2)cc1 (stereo not given)
 : i	1e-08	.	i	-2.7%
- CCOC(=O)c1cc(-c2ccccc2)sc1NC(=O)CSc1nnnn1C
 : i	1e-09	16%	i	0.3%
- O=C1c2ccccc2C(O)N1Cc1ccccc1Cl (stereo not given)
 : .	.	5%	.	1.9%
- N#Cc1ccc(CN2CC[C@@]3(CCCN(C(=O)c4ccco4)C3)C2)cc1
 : i	2.1e-08	?	i	0.6%
- Cc1ccc(Cn2c(Sc3ncccn3)nc3c2c(=O)[nH]c(=O)n3C)cc1
 : i	5e-08	1%	i	2.2%
- CS(=O)(=O)N1CCCC(c2nc(-c3ccc(S(=O)(=O)NCc4ccccc4)cc3)no2)C1 (stereo not given)
 : i	1e-09	?	i	0.9%
- CC(Oc1ccc(C(=O)NC2CCCCC2)cc1)C(=O)O (stereo not given)
 : i	2.1e-08	2%	i	-0.1%
- O=C(CSCc1n[nH]c(=O)[nH]1)NCCOc1cccc(Oc2ccccc2)c1
 : i	1e-09	-2%	i	9.9%
- COCCNC(=O)c1ccccc1-c1nc(-c2ccccc2OC)no1
 : i	4.6e-09	18%	i	-0.8%
- Fc1ccccc1N1CCN(c2ncnc3[nH]ncc23)CC1
 : i	4.2e-09	14%	i	-4.8%
- Cc1conc1NC(c1cccs1)c1ccc2cccnc2c1O (stereo not given)
 : i	1e-09	25%	i	-1.7%
- C[N+](C)(N)Cc1nc(-c2ccc(Cl)cc2)no1
 : i	2.5e-08	3%[11.4 µM]	i	0.5%[11.5 µM]
- COc1ccc(OCC(=O)NC2CC(C)(C)NC(C)(C)C2)cc1
 : .	.	-8%	.	-0.5%
- O=C(Cc1ccccc1)NCCSCc1ccco1
 : .	.	-1%[11.4 µM]	.	-0.5%
- Cc1ccc(-c2nc(CS(=O)(=O)CC(=O)N3CCCCCC3)c(C)o2)cc1
 : .	.	?	.	1.6%
- COC(=O)c1c(C)oc2ccc(NS(=O)(=O)c3cc(OC)ccc3OC)cc12
 : i	2e-08	?	i	-2.5%
- CCn1cc(C(=O)OCC(=O)Nc2c(C)n(C)n(-c3ccccc3)c2=O)c(=O)c2ccc(C)nc21
 : .	.	6%	.	1.5%
- O=C(c1ccco1)N1CCC2(CCN(Cc3nccs3)CC2)CC1
 : i	2e-08	12%	i	2.7%
- O=S(=O)(NCc1ccco1)c1cccc2cccnc12
 : i	1e-09	5%	i	1.1%
- Cc1cc(C)c(C#N)c(SCC(=O)Nc2ccccc2C(N)=O)n1
 : i	1.9e-08	14%	i	1.3%
- CCOC(=O)C1C(=O)Nc2nc(C)nn2C1c1ccccc1 (stereo not given)
 : i	6e-09	4µM*	i	-0.4%
- O=C(NCc1cccs1)C1CCCN(S(=O)(=O)c2cnc[nH]2)C1 (stereo not given)
 : .	.	-1%	.	-2.1%
- CCCn1c(C)nc2c(NCCO)nc(C)nc21
 : .	.	-4%	.	-0.3%
- Cc1cccc(CC(=O)Nc2cc(=O)n(C)c(=O)n2C)c1
 : .	.	6%	.	0.6%
- CCNc1oc(COc2cccc(C)c2)nc1C#N
 : i	8.7e-09	?	i	-1.7%

# Additional compounds
# Every second line gives: A488 autofl	A647 autofl	TSHR agonist	Resorufin fluor	AID923
- COc1ccc(C2CC(C(F)(F)F)n3nc(C(=O)NCCN4CCOCC4)cc3N2)cc1 (stereo not given)
 : i	3.5e-08	6%	i	0.7%
- CCc1noc(C)c1C(=O)N1CCOCC1
 : i	2.9e-08	4%	i	-0.3%
- c1coc(CNc2nc(-c3ccncc3)cs2)c1
 : i	1.4e-09	-11%	i	-0.1%
- O=C(CN1C(=O)C2CCCN2C(=O)c2ccccc21)Nc1ccccc1-n1cccc1 (stereo not given)
 : i	3.3e-08	2%	i	-0.5%
- CCOc1cc(NC(=O)C2CC2)c(OCC)cc1NC(=O)c1cccnc1
 : i	4.8e-08	-4%	i	2.0%
